HSV replic up = HSV replication enhancement; HSV replication augmentation in cells, fold increase; maximum fold increase; 220,000 tested, 0.005% active; AID 1956;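 active means peak rise of 1.5-fold or more in the series; inconclusive means self-fluorescent or not available for retest; tested in PC3 cells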;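 further: first round at 10 µM; read as green reporter fluorescence; hits show the peak of a series up to 25 µM; 1 = signal of infected wells without compound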
RGS16-Gao HTS = modulates binding between human RGS16 and Galphao; O15492+P09471; bead-based flow cytometry RGS16-Galphao binding, fluorescence; actives lie on both sides; binding response (% of control), % at 10 µM; 220,000 tested, 0.38% active; AID 1441;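 active means below 25% or above 175%, edge rows of some plates excepted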;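 further: Galphao activated by GDP with aluminum fluoride before binding; 100% = wells without compound and 0% = beads without RGS; some results beyond the cut were filed as inactive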
Target sequence (O15492 whole entry, looked up): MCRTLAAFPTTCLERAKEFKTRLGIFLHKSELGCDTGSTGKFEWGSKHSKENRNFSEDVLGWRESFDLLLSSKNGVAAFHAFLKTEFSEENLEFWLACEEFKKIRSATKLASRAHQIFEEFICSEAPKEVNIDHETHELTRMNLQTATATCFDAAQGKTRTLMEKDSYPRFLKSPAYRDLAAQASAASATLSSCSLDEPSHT
Target sequence (P09471 whole entry, looked up): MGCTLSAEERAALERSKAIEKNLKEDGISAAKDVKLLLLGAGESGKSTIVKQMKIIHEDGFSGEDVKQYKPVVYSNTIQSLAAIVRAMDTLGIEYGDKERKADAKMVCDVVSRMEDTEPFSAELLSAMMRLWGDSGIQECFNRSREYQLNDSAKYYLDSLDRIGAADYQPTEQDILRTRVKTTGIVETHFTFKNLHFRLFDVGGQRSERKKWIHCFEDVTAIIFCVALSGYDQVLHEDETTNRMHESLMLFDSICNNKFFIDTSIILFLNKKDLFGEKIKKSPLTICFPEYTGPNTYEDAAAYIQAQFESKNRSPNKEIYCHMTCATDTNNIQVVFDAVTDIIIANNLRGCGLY
Insulin prom inh = TRM-6 insulin promoter activity inhibition; TRM-6 cells (human fetal islet line), insulin promoter-eGFP reporter, imaging; reporter expression induced with tamoxifen; inhibition, % at 2 µM; 130,000 tested, 0.9% active; AID 1273;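 active means inhibition above the mean plus 3 SD, with well images judged a real hit on visual review, cut at about 60% in these data, passing the limit was not always enough; inconclusive means inhibition over the cutoff but images rejected on review; inactive means inhibition not above the cutoff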
PKD1 kinase inh = blocks activity of human protein kinase D1 | Q15139 | PKD1 kinase fluorescence polarization assay | inhibition, %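 (about 10 µM by stock and volumes)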 | 200,000 tested, 0.056% active | AID 797;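 active means inhibition of 50% or more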;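 further: controls were vehicle for no effect and a reference inhibitor for full effect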
GALR2 ag = agonists of human galanin receptor 2 (GALR2) | 140,000 tested, 0.48% active | activation, %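 (tested at 5 µM)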 | AID 803 | O43603 | GALR2-expressing cells, agonist activation read-out;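 active means above mean plus 3 SD of all compounds, about 5% in these data, not always enough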;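 further: 0% = vehicle buffer wells and 100% = reference agonist at full effect; tested in CHO reporter cells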
Target sequence (O43603 whole entry, looked up): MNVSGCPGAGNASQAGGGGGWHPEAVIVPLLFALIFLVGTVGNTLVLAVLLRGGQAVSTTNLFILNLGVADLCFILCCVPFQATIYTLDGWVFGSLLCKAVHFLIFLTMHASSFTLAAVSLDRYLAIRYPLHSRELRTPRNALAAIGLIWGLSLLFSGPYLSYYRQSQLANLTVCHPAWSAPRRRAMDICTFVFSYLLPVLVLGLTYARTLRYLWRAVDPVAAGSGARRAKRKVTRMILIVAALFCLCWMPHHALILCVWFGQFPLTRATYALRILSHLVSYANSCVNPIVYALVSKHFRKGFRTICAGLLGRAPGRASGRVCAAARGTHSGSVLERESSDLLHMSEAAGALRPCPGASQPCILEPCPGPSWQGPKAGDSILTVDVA
Insulin prom inh cell count = second read-out of Insulin prom inh, no call of its own (marks repeat the call); normalized cell count, %; measured here: cell count, toxicity; reference of the scale not given here;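 cells exposed to compound for 48 h; stained nuclei by imaging scaled within each plate; lower means fewer cells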
HSV replic up primary fold = also measured in HSV replic up; calls as there; fold increase; compound at 10 µM; measured here: primary screen fold increase 10 uM; tested in PC3 cells;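 GFP signal in the first replicate; 1 = infected wells without compound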
* = called active by the depositor; i = inactive; ? = inconclusive; / = no result given.

molecule	HSV replic up	HSV replic up primary fold	RGS16-Gao HTS	Insulin prom inh	Insulin prom inh cell count	PKD1 kinase inh	GALR2 ag
Cc1ccccc1N1CCN(S(=O)(=O)N(C)C)CC1	i	1	93	-40	76	-8	/
CC(C)(C)OC(=O)N1CCN(C(=O)Cn2cc(CCO)nn2)CC1	i	0.94	97	/	/	-6	/
COc1cc(S(=O)(=O)NCC2OCCc3ccccc32)ccc1-n1cnnn1 (stereo unspecified)	i	0.87	91	-3	104	-9	-0.4
COC(=O)c1cc(NC(=O)C2CC(=O)NC(=NCc3ccc(OC)cc3)S2)cc(C(=O)OC)c1 (stereo unspecified)	i	0.95	93	/	/	-9	/
O=C(CCc1ccccc1)NCc1cccnc1	i	0.91	95	-11	127	-3	-2.5
COc1ccccc1Cn1c(-c2ccco2)nc2nc3ccccc3nc21	?	/	/	-38	55	0	0.3
CCOC(=O)c1ccc(N2C(=O)C3ON(c4ccccc4)C(c4ccco4)C3C2=O)cc1 (stereo unspecified)	i	0.9	101	/	/	-6	-1.7
NC(=O)c1ccccc1	i	0.88	99	7	63	-3	/
COc1ccc(Nc2nc(-c3sc(N)nc3C)cs2)cc1	i	0.86	99	32	106	-5	-1.5
CCCn1nnc(NC(=S)NC(=O)C(C)(C)C)n1	i	0.99	102	/	/	-6	-1.1
CCCCn1c(SCC(=O)OCC)nnc1-c1ccoc1C	i	0.96	98	/	/	-1	0.6
COC(=O)c1ccc(OC(C)C(=O)c2ccc(C)cc2)cc1 (stereo unspecified)	i	1	104	-20	105	-9	-0.1
CCN(CC)c1ccc(NC(=O)COc2ccc(C)cc2)cc1	i	1.2	/	/	/	1	-2.3
CN1CCC(N(C)C(=O)CCc2nc3ccccc3c(=O)[nH]2)CC1	i	1.1	112	2	54	-1	-1.1
CCOC(=O)c1sc(=S)n(C)c1NC(=O)c1cccc(Br)c1	i	1.1	124	/	/	/	/
Cc1cc(NC(=O)c2ccc(Br)cc2)nc(C)n1	i	1.1	96	/	/	5	/
CCNS(=O)(=O)c1ccc(NC(=O)c2ccc(Cn3cc([N+](=O)[O-])cn3)o2)cc1	i	0.76	95	/	/	0	/
O=C(Nc1ccccc1-c1ccccc1)c1ccco1	i	0.94	103	/	/	2	-1.1
COc1ccc(S(=O)(=O)C(C#N)c2nc3ccccc3nc2N2CCCC(C)C2)cc1 (stereo unspecified)	1.6*	2.3*	75	5	98	-6	-0.6
COc1cc(C(=O)Nc2ccc(C(N)=O)cc2)c([N+](=O)[O-])cc1OC	i	0.95	98	/	/	14	/
COc1cccc(CNC(=O)C(=O)NCC2CCCO2)c1 (stereo unspecified)	i	1.1	101	44	110	-14	-0.1
NS(=O)(=O)c1ccc(CCNC(=O)/C=C/c2cccc([N+](=O)[O-])c2)cc1	i	0.71	103	/	/	-6	/
O=C1N2CCCc3cccc(c32)C12Nc1ccccc1S2 (stereo unspecified)	i	0.87	113	11	136	-1	-1.2
COc1ccc(OC)c(NC(=O)CSc2nc(C)cs2)c1	i	0.93	104	49	92	1	-0.9
CCSc1nc(C)c(C)c(=O)[nH]1	?	/	100	/	/	/	/

Continued.
molecule	HSV replic up	HSV replic up primary fold	RGS16-Gao HTS	Insulin prom inh	Insulin prom inh cell count	PKD1 kinase inh	GALR2 ag
COCc1cc(=O)[nH]c(SCCS(=O)(=O)c2ccc(C)cc2)n1	i	1.1	94	/	/	/	/
CCC(C)N(C(=O)COC(=O)CCc1c[nH]c2ccccc12)C1CCS(=O)(=O)C1 (stereo unspecified)	/	/	101	3	92	6	-2.5
CCc1nnc(NC(=O)CSc2ccc(-c3cccs3)nn2)s1	i	0.85	95	36	56	2	/
CCOC(=O)c1cnc2c(C#N)cnn2c1N	i	1	107	0	124	-5	/
COc1ccc(S(=O)(=O)NCC2CCC(C(=O)NCCC(C)C)CC2)cc1 (stereo unspecified)	i	0.9	100	-39	109	-14	-2.0
N#Cc1cc2c(nc1SC1CC(=O)N(c3ccccc3)C1=O)CCC2 (stereo unspecified)	i	1.1	104	8	80	-11	-1.4
CCC(=O)C1=C(O)C(c2cccc(Oc3ccccc3)c2)CCC1=O (stereo unspecified)	i	0.93	91	/	/	0	/
COCCNC(=S)NNC(=O)CSCc1ccc(Cl)cc1Cl	i	0.99	99	-68	109	-5	/
CCOc1ccc(/C=N/NC(=O)c2cc(-c3cccn3C)n[nH]2)cc1	i	0.99	96	/	/	8	/
CCOc1cc(C2Nc3ccccc3C(=O)N2c2ccccc2)ccc1O (stereo unspecified)	i	0.8	99	-27	94	-1	-2.9
CCOC(=O)CSc1nc(C2CC2)cc(-c2ccc(F)cc2)c1C#N	i	1	102	/	/	3	-2.5
Cc1ccc(C)c(NC(=O)CCN2CCc3ccccc3C2)c1	i	1.1	109	-15	60	-1	/
COc1ccccc1Oc1ccc(S(=O)(=O)NCc2ccccn2)cc1	i	1.1	73	-14	186	-11	-2.7
Cc1ccc(SCCC(=O)NC(C)(C)C)cc1	i	0.71	102	-130	77	-2	-1.9
COc1ccc(Nc2nnc(SCc3cc([N+](=O)[O-])cc4c3OCOC4)s2)cc1	i	1.1	101	-27	135	-7	-1.1
Cc1cc(C)cc(NC(=O)N2CCC(c3nc4ccccc4o3)CC2)c1	i	1.1	105	27	243	-3	-2.8
O=C(NCC(c1cccs1)N1CCOCC1)c1cc([N+](=O)[O-])ccc1Cl (stereo unspecified)	i	1.2	103	-15	122	-1	-1.5
CCOc1ccc(C(=O)N(Cc2ccc(OC)cc2)Cc2cc3cc(OC)ccc3[nH]c2=O)cc1	i	0.74	96	9	106	-10	-1.4
Cc1nn(C)cc1NC(=O)CCSc1nc(-c2ccco2)cc(C(F)(F)F)n1	i	0.98	102	27	112	7	0.3
c1ccc2c(c1)CCN(Cc1nnnn1Cc1ccc3c(c1)OCO3)C2	i	0.87	105	7	163	-12	-2.1
COc1cccc(NC2SC(=O)N(c3ccccc3)C2=O)c1 (stereo unspecified)	i	0.97	103	/	/	4	0.0
Cc1cccc(C)c1OCc1nnc2c3cnn(C)c3ncn12	i	0.88	101	-42	66	-2	-1.4
CCOC(=O)C(C)Oc1ccc2c(-c3cccc([N+](=O)[O-])c3)cc(=O)oc2c1 (stereo unspecified)	i	0.95	103	/	/	1	-0.7
Cn1c(SCC(=O)OC2CCCCC2)nnc1-c1ccc2c(c1)OCO2	i	1.3	94	/	/	9	-0.4
CCOC(=O)c1c(N2C(=O)Nc3cc(Cl)c(Cl)cc3N2O)sc2c1CCCCC2	i	0.76	107	-8	174	0	-1.9

New compounds follow.
compound,HSV replic up,HSV replic up primary fold,RGS16-Gao HTS,Insulin prom inh,Insulin prom inh cell count,PKD1 kinase inh,GALR2 ag
Cc1cc(C)n(-c2ccc(C(=O)Nc3ccc(S(=O)(=O)N(C)C)cc3)cc2)n1,/,/,100,15,138,-2,-1.1
COc1ccccc1CCc1nnc(CCC(=O)NCC[C@@H]2C[C@@H]3C=C[C@H]2C3)o1,i,0.78,106,-30,119,0,/
CCOC(=O)c1cc(-c2ccccc2)sc1NC(=O)CSc1nncs1,i,1.2,63,/,/,7,0.7
Cc1ccc([N+](=O)[O-])c2cccnc12,i,0.96,97,-11,84,-4,-1.2
Cc1cc(NC(=O)CCC(=O)N(c2ccccc2)C(C(=O)NC2CCCC2)c2ccncc2)no1 (stereo unspecified),i,0.9,106,/,/,-11,-1.5
CCCOc1cccc(-c2nn(-c3ccccc3)cc2/C=C(\C#N)C(=O)NCCCn2ccnc2)c1,i,0.98,104,-17,91,8,0.3
CCOc1ccccc1NC(=O)CSc1nnc(-c2ccccc2Cl)n1Cc1ccco1,i,1,102,-18,117,1,-1.9
COc1ccc(Cn2c(-c3ccc(Br)cc3)c[n+]3ccccc23)cc1,i,0.82,104,/,/,2,1.0

Looked up above.
Under RGS16-Gao HTS, `Cc1cc(NC(=O)CCC(=O)N(c2ccccc2)C(C(=O)NC2CCCC2)c2ccncc2)no1` (stereo unspecified) has 106
Under Insulin prom inh cell count, `CCCOc1cccc(-c2nn(-c3ccccc3)cc2/C=C(\C#N)C(=O)NCCCn2ccnc2)c1` has 91
Under Insulin prom inh, `Cc1ccc([N+](=O)[O-])c2cccnc12` has -11
Under PKD1 kinase inh, `CCOC(=O)c1cc(-c2ccccc2)sc1NC(=O)CSc1nncs1` has 7
Under RGS16-Gao HTS, `COc1ccccc1CCc1nnc(CCC(=O)NCC[C@@H]2C[C@@H]3C=C[C@H]2C3)o1` has 106

(more compounds)
compound,HSV replic up,HSV replic up primary fold,RGS16-Gao HTS,Insulin prom inh,Insulin prom inh cell count,PKD1 kinase inh,GALR2 ag
CSc1nnc2c3ccccc3c3ccccc3c2n1,/,/,94,3,77,-5,-1.8
CCc1ccccc1N1CN(Cc2ccco2)CNC1=S,i,0.88,110,/,/,/,/
COc1ccccc1CNC(=O)COc1ccc([N+](=O)[O-])cc1,i,1.1,103,29,119,3,/
Cc1ccc(NC2=NCCCCC2)cc1C,i,0.86,113,-8,215,-13,-0.8
CCOC(=O)C1CCN(S(=O)(=O)c2ccc3[nH]c(=O)oc3c2)CC1,i,1,102,/,/,-10,-3.7
COc1ccc(Br)c(C(=O)N2CCN(S(=O)(=O)c3cccs3)CC2)c1,i,0.92,95,/,/,/,/
CC(C)c1ccc(NC(=O)C(c2ccc3c(c2)OCO3)N2CCCCC2)cc1 (stereo unspecified),i,0.83,104,/,/,-7,-2.1
Cc1c(-c2ccccc2)[n+](=O)c2c(n1[O-])CCC2,i,1,101,-350,42,0,-0.8

Following part
compound,HSV replic up,HSV replic up primary fold,RGS16-Gao HTS,Insulin prom inh,Insulin prom inh cell count,PKD1 kinase inh,GALR2 ag
CCCCC(=O)Nc1nn(CCC)c2nc3ccccc3cc12,i,0.99,102,28,24,-4,1.8
CCCCOc1ncnc2c1[nH]c1ccccc12,i,0.84,105,0,112,10,-1.6
Cc1cc(C(=O)NCCCN2CCN(c3cc(Cl)ccc3C)CC2)n(-c2ccccc2)n1,i,0.54,102,/,/,-5,-2.3
Cc1ccc(NC(=O)CCNC(=O)c2ccco2)cc1,i,0.99,99,-33,100,6,-0.2
CCN1CCCC1CNC(=O)C(=O)NCc1ccccc1 (stereo unspecified),/,/,102,23,144,1,/
CN(C(=O)COc1cccc(Br)c1)C1CCS(=O)(=O)C1 (stereo unspecified),i,1.1,103,67,60,-2,-0.5
CCOC(=O)C1=C(C)NC(=O)CC1c1ccccc1 (stereo unspecified),i,1,100,-87,115,-6,5.2
O=C(Nc1ccc2c(c1)OCCO2)C1CCN(S(=O)(=O)c2ccc(Br)s2)CC1,i,0.88,90,19,118,0,1.1

Later entries.
compound,HSV replic up,HSV replic up primary fold,RGS16-Gao HTS,Insulin prom inh,Insulin prom inh cell count,PKD1 kinase inh,GALR2 ag
C=CCN1CCN(C(CCC)c2nnnn2Cc2ccco2)CC1 (stereo unspecified),i,1,99,15,86,-5,/
COc1cc(NC(=O)COc2ccc(Cl)cc2)ccc1NC(=O)C(C)C,i,0.86,94,/,/,/,/
Cc1cc(OC(=O)c2ccc(S(=O)(=O)N3CCCCC3)cc2)c([N+](=O)[O-])c(=O)[nH]1,i,0.95,107,2,40,5,/
COc1cc2c(cc1OC)C(=O)CCS2,i,1,109,-3,113,1,-1.5
Oc1ccc(/C=N/N=C(c2ccccc2)c2ccccc2)c(O)c1O,?,/,84,/,/,8,-1.3
Cc1oc2ccc(OC(=O)COc3c(F)c(F)c(F)c(F)c3F)cc2c1C(=O)OC(C)C,i,1.1,109,-7,109,3,-1.5
COc1cc2c(cc1NC(=O)COC(=O)c1ccc(C(C)(C)C)cc1)oc1ccccc12,i,0.98,104,/,/,-10,-0.8
CC(C)c1cc(C(=O)O)c2ccccc2n1,i,0.9,101,/,/,/,/

Reprinted from the entries so far, 2 compounds:
compound,HSV replic up,HSV replic up primary fold,RGS16-Gao HTS,Insulin prom inh,Insulin prom inh cell count,PKD1 kinase inh,GALR2 ag
COc1cc2c(cc1NC(=O)COC(=O)c1ccc(C(C)(C)C)cc1)oc1ccccc12,i,0.98,104,/,/,-10,-0.8
CC(C)c1cc(C(=O)O)c2ccccc2n1,i,0.9,101,/,/,/,/

Screening data deposited in PubChem by several laboratories.
